Source: PubChem BioAssay
Calb biofilm kill = clotrimazole potentiators killing C. albicans biofilm, primary screen, 4-compound mixtures | C. albicans biofilm persisters + clotrimazole, fluorescence viability; primary screen in compound mixtures of four per well | hit rate 0.02% among 120,000 | inhibition, % at 7.6 µM;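 active = inhibition above 30.3% in the primary screen of four-compound pools, then above 30% when the compound was retested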;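 note: compounds exposed to preformed 24 h biofilms for 48 h; the number belongs to the whole pool; some results filed as inactive read as strong as hits; inactives centre near 12; 0% = biofilm with clotrimazole alone and 100% = kill control; retested singly at about 60 µM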
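Test system: C. albicans biofilms. Buffer or medium: RPMI/MOPS medium, pH 7.0. Timing: 48 h compound exposure at 37 °C. Technique: Alamar Blue fluorescence. Evaluation: percent inhibition of biofilm viability.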
Starred values were filed as active, the others as inactive; & = joins results of further samples. The list is partial; count on the stated rates, not on these rows.

Start of the listing, in advance (two entries):
SMILES	Calb biofilm kill
Cc1cccc(NC(=O)c2ccco2)c1C(=O)O	15.2
CC(C)(C)C(=O)NC(=S)NNC(=O)c1ccc(-c2ccccc2)cc1	17.6

All compounds of this part, from the start:
SMILES	Calb biofilm kill
Cc1cccc(NC(=O)c2ccco2)c1C(=O)O	15.2
CC(C)(C)C(=O)NC(=S)NNC(=O)c1ccc(-c2ccccc2)cc1	17.6
Cc1oc(-c2cccs2)nc1CN1CCN(CCC(C)C)C(CCO)C1 (stereo not drawn)	-18.3
CCCCn1c(=O)[nH]c(=O)c2c1nc(-c1ccc(OCCC)c(OCC)c1)n2C	24.7
Cc1cccc[n+]1C1C(c2ccc([N+](=O)[O-])cc2)C(C#N)=C(C(=C=[N-])C#N)NC1(O)C1CC1 (stereo not drawn)	11.4
O=C(NC(=S)N(Cc1ccccc1)c1ccccn1)C1CCCCC1	19.9
CC1(C)Cc2nc3sc(C(=O)NCCCO)c(N)c3cc2CO1	0.1
COCC1CCCCN1Cc1cn[nH]c1-c1ccc2cc(OC)ccc2c1 (stereo not drawn)	10.8
CCOc1cnc(C(=O)NNC(=O)c2ccccc2Br)o1	16.6
Cc1ccccc1NC(=O)c1ccc(OCC(=O)Nc2ccccc2F)cc1	11.4
O=C(CSc1nccc(=O)[nH]1)Nc1ccccc1Sc1ccccc1	2.1
Cc1cc(=O)oc2cc(NC(=S)NCc3cccnc3)ccc12	7.9
Cc1ccc(S(=O)(=O)N2CCN(C(=O)CCC(=O)NCCc3ccc(S(N)(=O)=O)cc3)CC2)c(C)c1	16.8
CC12CC3(C)CC(C)(C1)CC(C(=O)NC(=S)N1CCCC1)(C2)C3	13.2
C=CCSc1nc2sc3c(c2c(=O)[nH]1)CCC3	11.2
CN(C)C(=O)CCSc1nnc(-c2ccncc2)o1	0.5
COc1ccc(/C=N/Nc2nc3ccccc3s2)cc1O	19.7
C=CCn1cccc(/C=C/C(=O)c2ccc(C(C)(C)C)cc2)c1=S	7.5
CCn1cc(Cl)c(C(=O)Nc2cc(C(=O)OC)cc(C(=O)OC)c2)n1	14.4
O=C(O)COc1ccccc1/C=N/NC(=O)CSc1nc2ccccc2c(=O)n1-c1ccccc1	12.9

An excerpt from above in order of number of heavy atoms, lowest first:
SMILES	Calb biofilm kill
C=CCSc1nc2sc3c(c2c(=O)[nH]1)CCC3	11.2
COc1ccc(/C=N/Nc2nc3ccccc3s2)cc1O	19.7
O=C(NC(=S)N(Cc1ccccc1)c1ccccn1)C1CCCCC1	19.9
COCC1CCCCN1Cc1cn[nH]c1-c1ccc2cc(OC)ccc2c1 (stereo not drawn)	10.8
Cc1cccc[n+]1C1C(c2ccc([N+](=O)[O-])cc2)C(C#N)=C(C(=C=[N-])C#N)NC1(O)C1CC1 (stereo not drawn)	11.4
O=C(O)COc1ccccc1/C=N/NC(=O)CSc1nc2ccccc2c(=O)n1-c1ccccc1	12.9

Remaining list, next part.
SMILES	Calb biofilm kill
Cc1ccsc1/C=N/NC(=O)c1cc(-c2ccncc2)nc2ccccc12	9.4
O=C(Nc1nc2ccccc2s1)c1cc(-c2ccccc2)nn1-c1ccccc1	13.3
CCCCc1nc(S(=O)(=O)c2ccc(Cl)cc2)c(N2CCOCC2)o1	8.7
COCc1c(C(=O)OCc2c(C)noc2C)oc2ccccc12	8.3
CCc1nnc(NC(=O)CSc2nc(-c3ccc(F)cc3)cc(-c3ccccc3)c2C#N)s1	-0.8
CCc1nc(SCC#N)c(C#N)cc1C	8.3
O=C(NC(=S)N(Cc1ccccc1)c1ccccn1)C1CC1	11.8
CCCCCOc1ccc(CSc2n[nH]c(C)n2)cc1	-0.1
COc1ccc(-c2cc(C(=O)O)nc3ccc4ccccc4c23)cc1OC	5.7
Cc1ccccc1Nc1nc(=O)c2cc([N+](=O)[O-])ccc2s1	17.8
Cc1nnc(-c2cnn(C)c2N)n1CCCN(C)C	-9.2
COc1cc(C(=O)NC2CC(C)(C)NC(C)(C)C2)cc(OC)c1OC	6.1
O=C(NN1C(=O)/C(=C\c2cccnc2)SC1=S)c1ccco1	9.9
CCOC(=O)c1c(C)[nH]c(C2=NNC(=Nc3ccc(OCC)cc3)SC2)c1C	14.4
O=C(/C(=C(\[O-])c1ccccc1)[n+]1ccc2ccccc2c1)c1ccc([N+](=O)[O-])cc1	6.9
CCCCCC(=O)N/N=C/c1ccc(N(C)C)cc1	2.8
CCCCC(=O)NC(=S)Nc1cccc(C(=O)O)c1	2.4
O=C(O)CC/C(=C\c1ccc(Cl)c([N+](=O)[O-])c1)c1nc2ccccc2s1	4.6
CCOC(=O)c1c(CSC(=N)N)n(C)c2cc(Br)c(OC(C)=O)cc12	18.4
CN1CCN(Cc2nc3ccccc3c(=O)n2Cc2nc(-c3ccccc3F)cs2)CC1	27.1

Of the compounds above, these have bromine:
SMILES	Calb biofilm kill
CCOc1cnc(C(=O)NNC(=O)c2ccccc2Br)o1	16.6
CCOC(=O)c1c(CSC(=N)N)n(C)c2cc(Br)c(OC(C)=O)cc12	18.4

Next part:
SMILES	Calb biofilm kill
CCC(C)NC(=O)CSc1nc2cc3c(cc2c(=O)n1Cc1ccco1)OCO3 (stereo not drawn)	34.5
CCOC(=O)c1c(NC(=S)Nc2ccc(OC)cc2)sc2c1CCCCC2	10.2
CCC(=O)Nc1cccc(C2=NOC3(C2)C[C@H](C(N)=O)N(C(=O)Cc2ccc([N+](=O)[O-])cc2)C3)c1 (stereo partly drawn)	13.4
O=C1NN(c2ccccc2)C(=O)C2C1C1C=CC2C12CC2 (stereo not drawn)	21.4
CCC(C)NC(=O)Nc1ccc(C)cc1C (stereo not drawn)	-8.8
CC(OC(=O)/C=C/c1cccs1)C(=O)Nc1ccc(S(N)(=O)=O)cc1 (stereo not drawn)	13.4
COC(=O)c1ccc(CNC(=O)c2cc3ccccc3oc2=O)cc1	15.2
CC(C)C(=O)N1CCC2(CC1)Oc1ccc(Cl)cc1C(=O)C21CC(c2cccnc2)=NO1 (stereo not drawn)	12.1
CCOC(=O)C1=C(C)C(c2ccc(OC)cc2)NC(=O)N1 (stereo not drawn)	14.4
C=CCn1cnc2c(nnn2-c2ccc(OC)c(OC)c2)c1=O	4.9
Cc1c(C(=O)N2CCCC(C)C2)sc2ncnc(N3CCCCC3C)c12 (stereo not drawn)	14.5
CC1CCCN(CC(=O)Nc2cccc([N+](=O)[O-])c2)C1 (stereo not drawn)	9.1
Cc1nn(C)c(C(=O)N/N=C/c2cccc3ccccc23)c1Cl	15.5
O=C(CSc1ccc2c(c1)OCCO2)Nc1cccnc1	-16.4
Cc1cccc(-n2ncc3c(NCc4cccnc4)ncnc32)c1	-0.3
Cc1cc(C)cc(NC(=S)NCc2ccc(S(N)(=O)=O)cc2)c1	14.2
CC(C)(C)c1ccc(C(=O)OC/C(O)=C(\C#N)c2nc3ccccc3s2)cc1	31.8
CCOc1cc(C2c3c(-c4ccccc4)n[nH]c3C(=O)N2c2ccc(C(=O)O)cc2)ccc1O (stereo not drawn)	16.9
O=C(OCc1ccc(Br)cc1)c1ccncc1	12.9
CCCNC1=C(N(C(C)=O)c2cccc(F)c2)C(=O)c2ccccc2C1=O	19.4
CC(c1ccccc1)n1c(SCC(=O)N2CC(=O)Nc3ccccc32)nc2ccccc2c1=O (stereo not drawn)	-2.9
O=C(NCc1ccco1)C1CCCN(S(=O)(=O)c2ccc(Br)cc2)C1 (stereo not drawn)	5.3
CC(=O)NC(Cc1ccccc1)C(=O)OCC(=O)c1ccc(Br)cc1 (stereo not drawn)	13.5
CCOc1cc(/C=C2/SC(=S)NC2=O)ccc1OC(=O)c1ccco1	9.9
CC(C)(C)c1ccc(NC(=O)N2CCCN(c3ccc([N+](=O)[O-])cn3)CC2)cc1	19.2
CC(C)COC(=O)c1ccccc1N1C(=O)C2C3CCC(C3)C2C1=O (stereo not drawn)	9.5
Cn1c(=O)c2c(ncn2CC(=O)OCC(=O)Nc2ccc(Cl)cc2)n(C)c1=O	19.1
COc1ccc(NCC(=O)N/N=C/c2cc([N+](=O)[O-])ccc2N2CCCC2)cc1	6.7
Nc1nonc1-n1nnc(C(=O)N/N=C/C2CC=CCC2)c1CSc1ccccc1 (stereo not drawn)	17.2
Cc1c(C(=O)N/N=C/c2ccccc2)[nH]c2ccc(Cl)cc12	13.7
COC(=O)c1ccc(CSc2cc(C)c3ccccc3n2)o1	2.5
CC(Sc1nc2ccccc2s1)C(=O)c1c(N)n(C)c(=O)n(C)c1=O (stereo not drawn)	1.0
CCNc1nc(Cl)nc(NNC(=O)C(C)Oc2ccccc2)n1 (stereo not drawn)	15.5
O=C(OCc1csc(Nc2ccccc2)n1)c1ccc(Cl)cc1	14.8
COc1ccc(OCC(=O)Nc2ccc(S(=O)(=O)Nc3nc(C)cc(C)n3)cc2)cc1	3.4
O=C(Nc1ccccc1)c1ccc(COc2ccccc2)cc1	2.7
C=CCN1C(=O)SC(Cc2cccc(OC)c2O)C1=O (stereo not drawn)	10.2
CC(C)CCNC(=O)c1sc2ccc(S(=O)(=O)N3CCCCC3)cc2c1N	12.7
NC(=O)[C@H]1CC2(CC(c3cccc(NC(=O)CC(c4ccccc4)c4ccccc4)c3)=NO2)CN1C(=O)C(c1ccccc1)c1ccccc1 (stereo partly drawn)	7.9
O=C1C(c2cc(=O)c3ccccc3[nH]2)=C(O)c2ccccc21	11.3

Next part, starting with the last 2 of the part before.
SMILES	Calb biofilm kill
NC(=O)[C@H]1CC2(CC(c3cccc(NC(=O)CC(c4ccccc4)c4ccccc4)c3)=NO2)CN1C(=O)C(c1ccccc1)c1ccccc1 (stereo partly drawn)	7.9
O=C1C(c2cc(=O)c3ccccc3[nH]2)=C(O)c2ccccc21	11.3
S=C(c1ccc[nH]1)N1CCOCC1	4.0
CNC(=O)c1c(NC(=O)c2ccc(S(=O)(=O)N3CCCc4ccccc43)cc2)sc2c1CCN(C)C2	21.8
CC(C)(C)NC(=O)COC(=O)c1ccc(Cl)c(S(N)(=O)=O)c1	-5.4
CCOC(=O)c1c(NC(=O)CCNCc2ccco2)sc2c1CCC2	18.1
NC(=S)Cc1ccc(Cl)cc1Cl	-0.8
Oc1ccccc1/C=N/Nc1ccccc1	26.0
CCc1ccc2oc(C(=O)NCc3ccc(S(N)(=O)=O)cc3)c(C)c2c1	7.5
CCC(C)NC(=O)c1ccccc1NC(=O)c1ccccc1N(C)S(C)(=O)=O (stereo not drawn)	10.8
Nc1c(Cl)ncnc1NCCO	11.4&-1.2
COc1ccc(-n2c(SCC(=O)C(C)(C)C)nc3ccsc3c2=O)cc1	18.6
O=C1CC(c2ccco2)Cc2c1cnn2-c1nc2ccccc2s1 (stereo not drawn)	12.3
Cc1ccc(CSc2ncnc3c2cnn3-c2ccc(C)cc2)cc1	19.3
CC1Cc2cccc3c(O)c(C(=O)c4nn[nH]n4)c(=O)n1c23 (stereo not drawn)	1.4
O=[N+]([O-])c1ccc(-n2cnc3ccccc32)c([N+](=O)[O-])c1	10.7
CCCCC#Cc1cncc(C(=O)NN)c1	15.5
COc1cc(NS(=O)(=O)c2ccc(NC(=S)NC(=O)c3sc4cc(F)ccc4c3Cl)cc2)nc(OC)n1	5.2
CC1Cc2cc(/C=C3/SC(N4CCC(C(N)=O)CC4)=NC3=O)ccc2O1 (stereo not drawn)	9.4
NC(=S)N/N=C/c1ccccc1	3.6
Cc1ccc(SCCC(=O)NC(C)C)cc1	9.6
COc1ccccc1Nc1nc(NCc2ccco2)nc(N)c1[N+](=O)[O-]	4.3
O=C(Oc1c(-c2ccccc2)c(=O)n2c3c(cccc13)CC2)c1ccccc1	17.8
CN1CCN(c2ccc(NC(=O)c3cccs3)cc2)CC1	3.5
CCC(Oc1ccccc1)C(=O)NC1C(=O)N2C1SC(C)(C)C2C(=O)O (stereo not drawn)	22.6
O=C(O)C1CCCCC1C(=O)NCc1ccccn1 (stereo not drawn)	16.7
O=S(=O)(O)c1nc2ccccc2[nH]1	12.6
Clc1ccc(-c2nnc(SCc3nc4ccccc4[nH]3)o2)c(Cl)c1	12.0
CCCCNC(=O)N(c1c(N)n(Cc2ccccc2)c(=O)[nH]c1=O)C1CCCC1	16.3
COc1cc(C)ccc1N(CCCN1C(=O)c2cccc3cccc(c23)C1=O)C(=O)c1cccs1	19.7
Cc1cc2c3c(c1)C1(C(=O)N3C(C)(C)CC2C)C(C#N)=C(N)OC2=C1C(=O)CC(C)(C)C2 (stereo not drawn)	8.1
O=C(O)CC1COc2ccccc2N1C(=O)c1ccccc1Cl (stereo not drawn)	8.5
COc1ccc(NC(C)C(=O)N/N=C/c2cc(Br)ccc2OC)cc1 (stereo not drawn)	15.0
O=C(COc1c(Cl)cccc1Cl)NN1C(=O)CSC1=S	24.1
C/C(=N\NC(=S)Nc1ccc(F)cc1)c1ccc2c(c1)OCCO2	12.1
CCNCc1nc2cc(Cl)ccc2c(=O)[nH]1	11.8
CCOC(=O)C1=C(CC)Nc2ccccc2N=C1NC(=O)c1ccc(OC)c(S(=O)(=O)N2CCCCC2C)c1 (stereo not drawn)	6.1
O=C(O)CCC(=O)Nc1ccc(C(=O)OCC(=O)c2ccc(Cl)cc2Cl)cc1	-2.4
Cc1ccc(SCCC(=O)NCc2ccccn2)cc1	17.4
COc1ccc(N2CCN(C(c3cccs3)C(C)NC(=O)c3ccco3)CC2)cc1 (stereo not drawn)	14.5
COc1ccc(N2CCN(C(=O)COCC(=O)O)CC2)cc1	20.1
CC1CCCCC1NC(=O)c1ccc(S(=O)(=O)NNC(=O)c2ccncc2)cc1 (stereo not drawn)	10.7
CC(C)(C)NC(=O)C(c1cccs1)N(Cc1ccc(F)cc1)C(=O)c1csnn1 (stereo not drawn)	8.3
Cc1cccnc1NC(=O)C1c2ccccc2Oc2ccccc21	10.1
CC(NCC(O)COC1CCC(C(C)(C)C)CC1)c1ccccc1 (stereo not drawn)	21.9
